High-throughput results as filed in PubChem BioAssay.
NPYLR7 agonist = mosquito NPYLR7 agonism. AID 1259423. HEK293T NPYLR7/Galpha15, GCaMP6s calcium fluorescence. 0.15% of 270,000 active. activation, % at 10 µM; in the data active = activation above about 40%;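 also: 0% = vehicle and 100% = reference agonist at the receptor; some compounds past the cut are filed as inactive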
NPYLR7 agonist max-min = further read-out of NPYLR7 agonist, marked with its call; activation, %; measured here: Max-Min RFU normalised activation; some inactives read as strong as hits;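 span of the calcium signal over five minutes; 0% = vehicle and 100% = native peptide agonist; compound fluorescence can raise it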
* marks the source's active call; other numbers are inactive results; & = joins results of further samples.

compound,NPYLR7 agonist,NPYLR7 agonist max-min
CC(C)OC(C)c1nc(-c2ccc(CO)cc2)no1 (stereo not drawn),20,11
COCCCN(CC(=O)Nc1cc(C(C)(C)C)nn1-c1ccc(C)cc1C)C(=O)c1ccc(Cl)cc1Cl,5,10
Cc1nc2cc(C(=O)N3CCCC(Nc4ccccc4)C3)ccc2n1-c1ccccc1 (stereo not drawn),1,-1
COc1ccccc1-c1[nH]nc2nccc(-c3cccc(CO)c3)c12,1,-1
O=C(Cc1ccccn1)N1CCCCC1CCN1CCOCC1 (stereo not drawn),4,4
CCOC(=O)C1CCCN(C(=O)c2coc(CN(Cc3cccc(C(F)(F)F)c3)C(C)C(C)C)n2)C1 (stereo not drawn),17,19
O=C(CCl)Nc1ccc(S(=O)(=O)N2CCCCCC2)cc1,-4,-12
CC1(C(=O)NS(=O)(=O)c2cccc(F)c2)CCN1C(=O)CC1CCCCC1 (stereo not drawn),8,5
CCOC(=O)N1CCC(NC(=O)c2ccc(C)n2C)CC1,2,2
Cc1nc(-c2cn[nH]c2-c2cc(C)c(O)cc2O)cs1,-4,-2
CC1(C(=O)NS(=O)(=O)c2cccc(Cl)c2)CCN1C(=O)c1ccc(C2CCCCC2)cc1 (stereo not drawn),2,1
IC1CC2CC=CC2CC1[n+]1ccccc1 (stereo not drawn),7,6
Cc1cccc(CN2CCN(Cc3cnn(C)c3)CC2)c1,8,6
CC(/C=C1\N=C(c2cccc(Cl)c2)OC1=O)=C\c1ccccc1,-21,-21
CCOc1ccc2nc(N(Cc3ccccn3)C(=O)c3ccc([N+](=O)[O-])s3)sc2c1,1,-2
COc1ccc(C2c3c(cc(C)oc3=O)OC(=N)C2C#N)cc1 (stereo not drawn),3,-1
CC(C)C(C)NC(=O)C1CCN(C(=O)c2ccc3nccn3c2)CC1 (stereo not drawn),-24&10,-27&6
CC1CN(c2cc(Cl)nc(SCC(=O)Nc3ccc(F)cc3)n2)CCN1C(=O)c1ccccc1Cl (stereo not drawn),14,18
CCOC(=O)c1cc(-c2ccc(F)cc2)n(C2CCN(S(=O)(=O)c3ccc(OC)c(OC)c3)CC2)n1,4,2
CNc1cc(-c2cccc(C(=O)N3CCOCC3)c2)ncn1,4,3
CC(C)(C)n1ncc2c(=O)n(NC(=O)c3cccc([N+](=O)[O-])c3)cnc21,6,4
CC1CN(C(C)(C)CNC(=O)c2ccc(NS(=O)(=O)c3cccc([N+](=O)[O-])c3)cc2)CC(C)O1 (stereo not drawn),6,3
Cc1ccc(CN(CC(O)c2ccc3c(c2)OCO3)C2CC2)o1 (stereo not drawn),-4,-5
CCn1cc(C(=O)Nc2ccc(F)c(C(=O)OC)c2)c2ccccc21,-2,-3
CC(C)NS(=O)(=O)c1cccc(C(=O)N2CCN(C(=O)c3cccs3)CC2)c1,-3,-1
CC(N)C(=O)Nc1nnc(-c2ccccc2)s1 (stereo not drawn),-7,-16
OC1(c2cccc(C(F)(F)F)c2)CCN(Cc2nc(-c3cccs3)no2)CC1,5,6
COc1ccc(CCOC(=O)[C@@H]2CCCN2C(=O)/C(=C/c2ccccc2)c2ccccc2)cc1OC,2,2
COc1ccc2c(c1)CCc1cc(CCC(=O)NCc3cc(F)ccc3F)n(CCc3cccc(F)c3)c1-2,30,17
CCc1cc(CN(C)C(=O)C2(c3ccc(F)cc3)CCOCC2)on1,14,8
CCc1ccc(C(=O)NCc2ncc(Cl)n2C)cc1,6&-5,1&-7
CC(=O)c1cc2c(cc1NC(=O)CN(C)Cc1cnc(C)s1)OCO2,9,0
Cc1cc(C)cc(S(=O)(=O)N2CCN(c3ncccc3NC(=O)c3ccc4c(c3)OCO4)CC2)c1,20,22
Cc1cccc(OCc2nc(CN(CCCN(C)C)C(=O)C3CCCC3)cs2)c1C,8,8
COc1ccccc1-n1cc(C(=O)N2[C@@H]3CC[C@H]2CNC(=O)C3)cn1,12,4
CC(=O)Nc1nc(SCC(=O)Nc2nccs2)[nH]c(=O)c1NC(=O)c1ccccc1,-2,-3
O=C(C1CCCN1C(=O)c1cccs1)N(Cc1ccc2c(c1)OCO2)C1CCCC1 (stereo not drawn),5,2
Cc1nc(NCc2ccccc2)c2cc[nH]c2n1,-7,-19
CCC(C)N(Cc1ccccc1)CC(O)COc1ccccc1C (stereo not drawn),5,11
COCCN(Cc1nccs1)CC1CCCN(C2Cc3ccccc3C2)C1 (stereo not drawn),3,0

An excerpt of these results, with values under each structure:
Values run as follows: NPYLR7 agonist, NPYLR7 agonist max-min
> COc1ccc2c(c1)CCc1cc(CCC(=O)NCc3cc(F)ccc3F)n(CCc3cccc(F)c3)c1-2
  30, 17
> CCc1cc(CN(C)C(=O)C2(c3ccc(F)cc3)CCOCC2)on1
  14, 8
> CCc1ccc(C(=O)NCc2ncc(Cl)n2C)cc1
  6&-5, 1&-7
> CC(=O)c1cc2c(cc1NC(=O)CN(C)Cc1cnc(C)s1)OCO2
  9, 0
> Cc1cc(C)cc(S(=O)(=O)N2CCN(c3ncccc3NC(=O)c3ccc4c(c3)OCO4)CC2)c1
  20, 22

The listing continues.
compound,NPYLR7 agonist,NPYLR7 agonist max-min
Cc1ccc(C(C)NC(=O)CCc2ccc(C#N)cc2)o1 (stereo not drawn),1,1
CC(=O)Nc1nnc(SCc2ccccc2F)s1,4&23,9&24
Cc1ccc2c(c1)oc(=O)n2C1CCN(C(=O)c2ccc(Cl)nc2)CC1,18,31
CCOC(=O)c1sc(N)c(C#N)c1COC(=O)c1c(NC(=O)C(C)(C)C)sc(C)c1C,18,11
O=C(c1c(C(F)(F)F)nn(CCO)c1C(F)F)N1CCN(CC(F)F)CC1,1,0
COC(=O)c1cc2n(n1)CCCN(c1nccc(N3CCC(O)CC3)n1)C2,16,5
CCCn1c(SCC(=O)c2cc(C)n(CC)c2C)n[nH]c1=O,2,10
COc1cccc(C(=O)Oc2ccc(C(C)=O)cc2OC)c1,13,9
O=C(CSc1ccccc1)N1CCCN(c2nc(Cc3ccccc3)nc3c2cnn3-c2ccccc2)CC1,8,7
Cc1cc(C(=O)COC(=O)c2cc3c(s2)CCC3)c(C)n1-c1nccs1,-4,-3
COc1ccc(CSc2nnc(SCC(=O)N3CCCCCC3)s2)cc1,9,14
O=C(C(Cc1ccccc1)NCc1cccc(O)c1)N1CCCC1 (stereo not drawn),2,4
O=C(O)c1cn(CCCc2ccccc2)nn1,3,3
COc1cccc(-c2n[nH]c3ccnc(-c4ccc(OC)nc4)c23)c1,1,-1
NC(=O)c1ccc(S(=O)(=O)N2CCN(c3nccc(C(F)(F)F)n3)CC2)o1,5,2
Cc1ccccc1-n1ncc(C(=O)N2CCn3cccc3C2C)c1C (stereo not drawn),7,4
COCCn1cnc2c1c(=O)n(CC(=O)N(Cc1ccccc1)C1CC1)c(=O)n2Cc1ccccc1,-1,-1
CCn1ncc(C(=O)N2CCc3nc(N(C)C)[nH]c(=O)c3CC2)c1C,5,2
CC(=CC(=O)C(F)(F)F)NCc1ccco1,-6,-7
CSCc1ccc(C(=O)N2CCC(N3CCC(C(=O)NC(C)C)CC3)CC2)o1,0,-3

The closing 2 compounds of the section before lead into the next:
compound,NPYLR7 agonist,NPYLR7 agonist max-min
CC(=CC(=O)C(F)(F)F)NCc1ccco1,-6,-7
CSCc1ccc(C(=O)N2CCC(N3CCC(C(=O)NC(C)C)CC3)CC2)o1,0,-3
Cc1noc(C)c1C(=O)N1CCOC(Cc2cccc3ccccc23)C1 (stereo not drawn),10,9
Cc1ccc(N2N=C(Br)CC2C(=O)O)cc1 (stereo not drawn),5,1
COc1ccc(N=Nc2c(O)ccc3ccccc23)c([N+](=O)[O-])c1,-3,-3
Cc1c(Cl)c(C(F)(F)F)nn1CC(=O)Nc1ccc(Cl)cc1,-1,-1
CCOc1ccccc1CN1CCN(C2CCN(c3ccccc3F)CC2)CC1CCO (stereo not drawn),1,-4
O=C(Nc1cccnc1N1CCN(S(=O)(=O)c2cccc(Cl)n2)CC1)c1ccc2c(c1)OCO2,2,-1
Cc1cc(C)c2c3oc(=O)cc(O)c3c(=O)n(C)c2c1,7,6
CC(=O)Nc1ccc(C)cc1NC(=O)c1n[nH]c(C2CC2)c1Cl,0,1
CCO[C@H]1COC[C@@H]1NC(=O)CSCc1ccccc1Cl,10,14
CCOc1ncccc1C(=O)NCc1ccc(C)c(F)c1,3,1
CS(=O)(=O)NCCn1nc(-c2cccs2)ccc1=O,0,0
CCOC(=O)C(C)Sc1nnc2n1CCN2c1ccc(F)cc1 (stereo not drawn),1,8
COc1ccc(-n2nc(C(C)(C)C)cc2NC(=O)c2cccc(C#N)c2)cc1,-8,-2
CC1CN(C(=O)CN2CCc3sccc3C2c2cccc(F)c2)CCN1C(=O)COCc1ccccc1 (stereo not drawn),16,4
COC(=O)c1[nH]nc2c1C(=O)N(C1CCCCC1)C2=O,2,-3
Cc1cccn2c(=O)c3cc(C(=O)NC4CCCCCCCCCCC4)n(C)c3nc12,3,1
CN(C(=O)c1ccsc1)C(Cc1ccccc1)C1CCN(C(=O)[C@H]2C[C@@H]3C=C[C@H]2C3)CC1 (stereo partly drawn),-2,-6
CSc1nc2c3ccccc3ncn2n1,-1,3
Cn1c(=O)n(Cc2cccc3ccccc23)c(=O)c2c1nc1n2CCCN1Cc1ccco1,3,1
CC1=NN(CCc2ccccc2)c2nc3c(c(=O)n(CCc4ccccc4)c(=O)n3C)n2C1,5,7
Cc1nc2n(n1)C(=O)C(C(c1cccc(Cl)c1)N1CCC(C)CC1)S2 (stereo not drawn),4,0
COc1cc2c(cc1OC)CN(S(=O)(=O)c1ccc(OC)c(N3CCN(C(=O)c4ccco4)CC3)c1)CC2,2,-4
Cc1ccc2oc(-c3ccc(N)c(C)c3)nc2c1,3,-1
Cc1ccc(S(=O)(=O)c2nc(SCC(=O)Nc3ccccc3)sc2N2CCOCC2)cc1,6,14
Cc1cccc(-c2cc(N)n(-c3ccc(C(=O)Nc4cccc(Cl)c4)cc3)n2)c1,-6,-10
COCCCC1CCN(Cc2nc(Cc3ccccc3Cl)no2)CC1,6,-1
N#Cc1ccc(N2Cc3ccccc3C2=NC(=O)c2cccs2)cc1,6,7
COc1cc(C(=O)NCC(=O)Nc2nc3c(ccc4ccccc43)s2)cc(OC)c1OC,-4,-3
CC(CN1CCCC1=O)NCc1cc(-c2ccccc2)ccc1O (stereo not drawn),8,6
COC(=O)C1=C(O)/C(=C\c2ccc(O)c(C)c2)SC1=Nc1ccccc1Cl,-3,3
C=CC[n+]1cc(-c2ccccc2)n2c1CCCCC2,18,7
Nc1ccc(CN2C(=O)CSC2=O)cc1,19,10
CCCCN(CC(=O)Nc1cc(C(C)(C)C)nn1-c1ccccc1Cl)C(=O)Nc1ccccc1C(F)(F)F,-2,4
O=C1NC(=O)C(=C2C=C(c3ccccc3)N(CCN3CCOCC3)C3=C2CCCC3)C(=O)N1,4,4
O=C(OCC(=O)N1CCOCC1)c1ccc(-c2cc(Cl)ccc2Cl)o1,2,1
CNC(=O)[C@H](Cc1c[nH]c2ccccc12)NC(=O)[C@@H](CC(=O)NO)CC(C)C,1,-4
CN(C)S(=O)(=O)c1ccc(Cn2ccnc2-c2ccc(O)cc2)cc1,26,13
CN(C)C(=S)Nc1ccc(N(C)C)cc1,8,2
Cc1n[nH]c(C)c1NC(=O)NC(C)c1cccc(N2CCCC2)c1 (stereo not drawn),-3,-13
CC(Cn1cccn1)C(=O)Nc1cccc(NC(=O)Cc2ccccc2)c1 (stereo not drawn),-1,18
COc1ccc(OC)c(S(=O)(=O)Nc2ccccc2C(=O)NCc2ccc3c(c2)OCO3)c1,-1,6
Cc1nn(C)c2sc(C(=O)NCC3(N)CCCC3)cc12,3,2
CCCn1c(=O)n(C)c(=O)c2c3oc(=O)c(NC(=O)c4ccc(F)cc4)cc3[nH]c21,3,1
Oc1ccc(Br)cc1-c1nc2cnccn2c1NC1CCCC1,3,2
NC(=O)CCN1CCN(CC(=O)Nc2ccc(Cl)c(C(F)(F)F)c2)CC1,12,3
COc1ccc(C2CCCN2CC(=O)N2CCCC3CCCCC32)cc1OC (stereo not drawn),2,0
O=C(Cc1ccccc1)NC(NC(=S)Nc1cccc(O)c1)C(Cl)(Cl)Cl (stereo not drawn),-11,-19
Fc1cccc(C2c3cccn3CCCN2Cc2ccc3c(c2)OCCO3)c1 (stereo not drawn),-1,2
CCCCn1c(=O)c2c(nc3n2CCCN3Cc2ccco2)n(C)c1=O,0,-1
Cc1nc2nc(-c3ccccc3C)cc(C(=O)O)c2[nH]1,0,0
CCN(CC)CCCNC(CC(=O)Nc1ccc(N=Nc2ccccc2)cc1)C(=O)O (stereo not drawn),22,12
S=c1[nH]cccc1Nc1ncccn1,3,5
CSc1ccc(COc2coc(CN3CCN(S(=O)(=O)c4ccc(C#N)cc4)CC3)cc2=O)cc1,-2,-3
O=C(CSc1n[nH]c(=O)c2cc(-c3ccco3)nn12)NC1CCCCC1,-1,-5
CC(C)COC(=O)N1CCCN(CC(C#N)CCC#N)CC1 (stereo not drawn),0,-2
O=C1CCC(=O)N1c1ccc(S(=O)(=O)O)cc1,11,3
COc1ccc2nc(-c3cccc(NC(=O)Nc4ccccc4OC)c3)cn2n1,0,1
Cc1ccc(C2CC(=O)c3c(C)nn(-c4nc(C)cc(C)n4)c3C2)cc1 (stereo not drawn),4,2

A portion of the library, so the mix of outcomes need not match the whole.
